# SmPrx2 inh: blocks S. mansoni peroxiredoxin 2 enzymatic activity; S. mansoni Prx2 activity coupled to TGR/GSH (TGR is thioredoxin glutathione reductase), NADPH fluorescence loss, qHTS; some inactives read as strong as hits; Potency, µM; hit rate 0.07% among 65,000; AID 448; active means full or partial inhibition curve with a strong effect at the top dose; inconclusive means weaker partial or single-point curve; inactive means no accepted curve; also: series up to 57 µM; many of its hits are not listed in these tables
#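 Coupled assay in which S. mansoni TGR passes NADPH reducing equivalents via glutathione to Prx2, which reduces H2O2. Compounds were preincubated 15 min at room temperature with 25 nM TGR/50 nM Prx2 mix. Kinetic NADPH fluorescence loss (ex 365/em 450 nm) was monitored.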
# LT uptake inh: inhibitors of anthrax lethal toxin internalization | Potency, µM (titrated, usually from 40 µM), for the others: at the top dose activity change, negative = inhibition, actives largely listed as inhibitors | Cells, anthrax lethal toxin internalization, FRET ratio (460/530) | AID 912 | hit rate 0.67% among 70,000; active = well fitted falling ratio curve with the 530 nm signal flat; inconclusive = other ratio curves, or a change in one channel alone; inactive = flat curves in the ratio and both channels; the % refers to the ratio; also: % is scaled to controls: 0 for no effect and ±100 for the full control effect; nearly all actives have a fitted effect of over 50% in size; tested in ME-180 cells; beta-lactamase reporter
# * = called active by the depositor; ? = inconclusive; · = no result given; & = joins results of further samples; [ ] = remark or other dose. Potency is read from the fitted curve at half-maximal effect. This is a subset; rates above refer to the full screens.
# Start of the data: the first 2 records (preview)
SMILES,SmPrx2 inh,LT uptake inh
COc1ccc(OC)c(NC(=O)Cn2cc(C#N)c3ccccc32)c1,>57,-21%
Cc1noc(C)c1S(=O)(=O)Nc1ccc(C(=O)NC2CCCCC2C)cc1 (stereo not given),>57,-21%

# Results, from the start:
SMILES,SmPrx2 inh,LT uptake inh
COc1ccc(OC)c(NC(=O)Cn2cc(C#N)c3ccccc32)c1,>57,-21%
Cc1noc(C)c1S(=O)(=O)Nc1ccc(C(=O)NC2CCCCC2C)cc1 (stereo not given),>57,-21%
CC(C)(C)NCCCCOc1ccc(F)cc1,·,-1%
Cn1c(O)c(C=NCCCN2CCCC2=O)c(=O)n(C)c1=O,>57,6%
CN1CCN(c2ncc3nc(-c4cccs4)c(=O)n(CCc4ccccc4)c3n2)CC1,>57,?
Cc1ccc(S(=O)(=O)N2CCN(C(=O)N3CCOCC3)C2C)cc1 (stereo not given),>57,-9%
CO[C@H]1COC(=O)[C@H](Cc2ccccc2)NC(=O)C/C=C\[C@@H](C)[C@H](OC)COC(=O)C/C=C\[C@@H]1C,·,30%[8 µM]
CC(C)N(CCc1ccncc1)C(=O)Nc1ccc(F)cc1,>57,4%
CCN(CC)CCCN(Cc1cc2cc3c(cc2[nH]c1=O)OCO3)C(=O)Nc1ccccc1OC,>57,7%
Fc1ccc(CSc2nncn2NCc2ccc3c(c2)OCO3)cc1,>57,0%
C=CCn1c(SCC(=O)NC2CCCCC2)nnc1-c1ccc(OC)cc1,>57,1%
C=C[C@H]1CN2CC[C@@H]1C[C@H]2[C@@H](O)c1ccnc2ccccc12,>57&>57,-6%&-8%[3.58 µM]
CC1CCCCC1NC(=O)C1CCN(S(=O)(=O)c2ccc3c(c2)CCC(=O)N3)CC1 (stereo not given),>57,-4%
Cc1cccc(CNc2cc(-c3cccnc3)ncn2)c1,>57,20%
COCC(=O)N(C)c1nnc(-c2cnc(C)cn2)s1,>57,-11%
COc1cc(Br)cc(CN2CCN(C=O)CC2)c1O,>57,0%
O=C(NCN1CCCCC1)c1cnccn1,>57,18%
O=C(CN1C(=O)CCC1=O)Nc1nc(-c2ccccn2)cs1,>57,12%
Cc1ccc2nc(N3CCN(C)CC3)c(C#N)cc2c1,>57,4%
CC(=O)Nc1ccc(C(=O)CSc2nnc3scc(-c4ccccc4)n23)cc1,>57,-16%
Oc1c(C(c2ccco2)N2CCOCC2)sc2ncnn12 (stereo not given),>57,-6%
O=C(Nc1ccc(S(=O)(=O)NCc2ccccc2)cc1)Nc1ccc2c(c1)OCO2,>57,?
CN1CCN(C(=S)c2ccc(N(C)C)cc2)CC1,·,?
CC(C)OC(=O)CSc1nnc(-c2cnccn2)n1C,>57,0%
O=C(CSc1ncccn1)NC(=O)NCc1ccccc1,>57,22%

# Continued.
SMILES,SmPrx2 inh,LT uptake inh
CC(C)(C)c1cc(=O)n2c(C#N)c(C#N)nc2[nH]1,>57,4%
CCC(Oc1ccccc1)C(=O)Nc1nnc(C)s1 (stereo not given),>57,17%
CCOC(=O)C(NC(C)=O)C(OC(C)=O)c1cccc(N(CCO)CCO)c1 (stereo not given),>57,-10%
Cc1cc(=S)[nH]c2ccccc12,>57,-8%
CS(=O)(=O)Nc1cccc(-c2cncnc2NCc2cccnc2)c1,>57,5%
O=C(O)c1cc2c(s1)-c1ccccc1OC2,>57,-17%
CCCCC#Cc1nc(NC)c2ncn([C@@H]3O[C@@H](CO)[C@H](O)[C@H]3O)c2n1,>57,-3%
COc1ccc(NC(=O)c2c(OC)cccc2OC)c(OC)c1,>57,-9%
CN(C)S(=O)(=O)c1cccc(C(=O)OCC(=O)Nc2sccc2C(N)=O)c1,>57,?
Oc1cc(Cc2ccccc2)cnc1CN1CCCCC1,·,-9%
c1ccc(-c2ncnc3nc4n(c23)CCC4)cc1,>57,1%
COc1cccc(CN(C)C(=O)c2ccc(S(=O)(=O)N3CCCC3)cc2)c1OC,>57,?
Cc1cccc(NC(=O)N2CCC(NC(=O)c3ccccc3C)CC2)c1,>57,-2%
CCC(=O)N1CCCc2cc(S(=O)(=O)N3CCN(C4CCCCC4)CC3)ccc21,>57,5%
Cn1c(C(=O)N2CCN(c3ccccn3)CC2)cc2c(=O)n(C)c3ccccc3c21,>57,14%
CCCn1c(-c2ccc(F)cc2)nc2c(NCCN3CCCC3)nc(C)nc21,·,-7%
O=C(CCC1CCCC1)N1CCN(C(=O)COc2ccccc2)CC1,>57,0%
COC(=O)CSc1nc(N)c(C#N)c(C(C)C)c1C#N,>57,7%
COc1ccc(CCNC(=O)CSc2nnc(-c3ccc(F)cc3)o2)cc1OC,>57,3%
CC1(C)Cc2ccccc2-c2nnc(SCC(=O)Nc3nc4ccccc4s3)n21,>57,?
Cc1c(F)cccc1NS(=O)(=O)c1ccccc1C#N,>57,-5%
CCOC(=O)C(C(=O)Nc1cccc(C)n1)C1CCCCC1 (stereo not given),>57,-20%
C[N+]1=C2CCCCCN2C(O)(c2ccccc2)C1 (stereo not given),>57,6%
COc1ccc(C2CC(C(F)(F)F)n3nc(C(N)=O)c(Cl)c3N2)cc1OC (stereo not given),>57,12%
Cc1ccc(Cn2nnc3c(=O)n(CC(=O)c4ccccc4)cnc32)cc1,>57,-3%

# Next section:
SMILES,SmPrx2 inh,LT uptake inh
CC1(C)CC(=O)C=C(Nc2ccccn2)C1,>57,-1%
COc1ccc(N2C3=[N+](CC2(C)O)c2ccccc2CC3)cc1 (stereo not given),>57,0%
O=C(COc1cccc2ccccc12)N1CCN(c2ccccn2)CC1,>57,?
c1ccc2sc(SCN(C3CCCCC3)C3CCCCC3)nc2c1,>57,?
O=C(CSc1nc2ccccc2s1)NC(=O)NCc1ccco1,>57,-6%
COC(=O)c1ccc2nc(NC(=O)CN3C(=O)CCC3=O)sc2c1,>57,?
Cc1onc(-c2ccccc2Cl)c1C(=O)N1CCCc2ccccc21,>57,?
Cc1oc(C(C)(C)C)cc1C(=O)NCC(=O)NCC(=O)O,>57,7%
CC1CN(C(=O)c2cc3c(=O)n4ccccc4nc3s2)CC(C)O1 (stereo not given),>57,11%
O=C(c1ccco1)N1CCN=C1SCc1ccccc1F,>57,-7%
Cc1cccc(-n2ccnc2SCC(=O)Nc2nccs2)c1,>57,0%
O=C(Nc1ccccc1-c1ccccc1)c1cnccn1,>57,14%
O=C(O)CSc1nnc(-c2ccccc2O)n1Cc1ccccc1,>57,-4%
O=C(CC1(O)C(=O)Nc2ccccc21)c1ccccc1 (stereo not given),>57,3%
CCn1c(=O)c(C2=NS(=O)(=O)c3ccccc3N2)c(O)c2ccccc21,>57,-8%
Cc1nc2cc(Cl)c(Cl)cc2nc1C,>57,15%
O=c1c(F)cn(C2CCCO2)c(=O)n1Cc1c(F)cccc1Cl (stereo not given),>57,5%
O=C(Oc1cccc(Br)c1)c1cccnc1,>57,2%
Cc1cc(C)c2nc(N3CCCN(C(=O)c4cnccn4)CC3)c(C#N)cc2c1,>57,?
CCCn1nnc(NC(=O)c2cccc(OCC(C)C)c2)n1,>57,1%
Cc1ccc2c(c1)c1ncnc(N3CCOCC3)c1n2C,>57,·
CCOC(=O)CSc1nnnn1-c1cc(OC)ccc1OC,>57,3%
O=C(Nc1ccc(Cl)cc1C(=O)NCC1CCCO1)c1ccco1 (stereo not given),>57,19%
CCOC(=O)N1CCN(C(=O)COc2ccc3c(c2)C(=O)CC2(CCN(C(C)=O)CC2)O3)CC1,>57,5%
O=C(CSc1nnc(-c2cccs2)n1-c1ccccc1)NCC1CCCO1 (stereo not given),>57,?

# 17 entries already listed, arranged by molecular weight, largest number first.
SMILES,SmPrx2 inh,LT uptake inh
O=C(CSc1nnc(-c2cccs2)n1-c1ccccc1)NCC1CCCO1 (stereo not given),>57,?
CCn1c(=O)c(C2=NS(=O)(=O)c3ccccc3N2)c(O)c2ccccc21,>57,-8%
c1ccc2sc(SCN(C3CCCCC3)C3CCCCC3)nc2c1,>57,?
Cc1onc(-c2ccccc2Cl)c1C(=O)N1CCCc2ccccc21,>57,?
O=C(Nc1ccc(Cl)cc1C(=O)NCC1CCCO1)c1ccco1 (stereo not given),>57,19%
O=C(CSc1nc2ccccc2s1)NC(=O)NCc1ccco1,>57,-6%
CC1CN(C(=O)c2cc3c(=O)n4ccccc4nc3s2)CC(C)O1 (stereo not given),>57,11%
O=C(O)CSc1nnc(-c2ccccc2O)n1Cc1ccccc1,>57,-4%
Cc1cccc(-n2ccnc2SCC(=O)Nc2nccs2)c1,>57,0%
CCOC(=O)CSc1nnnn1-c1cc(OC)ccc1OC,>57,3%
COc1ccc(N2C3=[N+](CC2(C)O)c2ccccc2CC3)cc1 (stereo not given),>57,0%
O=C(c1ccco1)N1CCN=C1SCc1ccccc1F,>57,-7%
CCCn1nnc(NC(=O)c2cccc(OCC(C)C)c2)n1,>57,1%
Cc1ccc2c(c1)c1ncnc(N3CCOCC3)c1n2C,>57,·
O=C(Nc1ccccc1-c1ccccc1)c1cnccn1,>57,14%
O=C(CC1(O)C(=O)Nc2ccccc21)c1ccccc1 (stereo not given),>57,3%
Cc1nc2cc(Cl)c(Cl)cc2nc1C,>57,15%

# The list continues:
SMILES,SmPrx2 inh,LT uptake inh
Cc1noc(C)c1S(=O)(=O)N1CCC(C(=O)N2CCN(c3ccc(F)cc3)CC2)CC1,>57,0%
Cc1ccc(-n2nnnc2SC(C)C(=O)Nc2ccc(Cl)cn2)cc1 (stereo not given),>57,?
COc1ccc(C(c2c(O)ccc3ccccc23)N2CCOCC2)c(OC)c1 (stereo not given),>57,6.3µM*
Cc1ccccc1OCC(=O)Nc1ccc2c(c1)OCO2,>57,?
COc1ccc(-c2nn(C)c3sc(C(=O)NCc4ccco4)cc23)cc1OC,>57,-2%
COC(=O)c1[nH]c2c(c1C)C(=O)CC(c1ccccc1)C2 (stereo not given),>57,-17%
O=C(CSc1ncnc2c1oc1ccccc12)N1CCCc2ccccc21,>57,?
Oc1c(C(c2ccco2)N2CCN(C(c3ccccc3)c3ccccc3)CC2)sc2ncnn12 (stereo not given),>57,-23%
CCOCCOC(C)=O,·,-5%
CC(=O)Nc1ccc(S(=O)(=O)NC2(C(F)(F)F)NC(=O)N(C3CCCC3)C2=O)cc1 (stereo not given),·,-7%
O=C(NCc1cccs1)C1CCCN(S(=O)(=O)c2cccs2)C1 (stereo not given),>57,-6%
FC(F)(F)c1ccc2c(c1)nc1n2CCCC1,>57,-6%
O=C1c2ccccc2S(=O)(=O)N1CC(O)Cn1c2ccccc2c2ccccc21 (stereo not given),>57,?
CCOc1ccc(Oc2nc(NCC(C)C)nc(N(C)C)n2)nn1,>57,13%
Cc1cc(C(=O)N2CCc3ccccc32)n(-c2ccccc2)n1,>57,-17%
O=Cc1ccc2c(c1)OCO2,·,1%
CCC(=O)OCc1cc2cccc(C)c2[nH]c1=O,>57,5%
O=C1NCCCC1C(=O)N1CCN(C(=O)C2CCCNC2=O)CC1 (stereo not given),>57,-4%
N#Cc1ccc(COc2ccc(CCO)cc2-n2nc3ccccc3n2)cc1,>57,-16%
O=S(=O)(NC1CCCCC1NS(=O)(=O)c1ccc(F)cc1)c1ccc(F)cc1 (stereo not given),>57,?
O=C(c1ccc(COc2c(F)c(F)c(F)c(F)c2F)o1)N1CCOCC1,?,-8%
CC(=O)C1=C(O)C(=O)N(CCCCCC(=O)O)C1c1ccc(N(C)C)cc1 (stereo not given),>57,?
O=C(CN1CCN(S(=O)(=O)c2ccc(Cl)cc2)CC1)Nc1ccc2c(c1)OCCO2,>57,-9%
O=C(c1cccs1)n1nc(-c2ccccc2)nc1NCc1ccco1,>57,?
Cc1ccc(-c2nnc(SCC(=O)Nc3ccccc3F)o2)cc1,>57,3%

# The results go on:
SMILES,SmPrx2 inh,LT uptake inh
O=C1OC(=O)c2c(Cl)c(Cl)c(Cl)c(Cl)c21,·,-2%
CC(=O)Nc1ccc2c(c1)nc(CCN1CCOCC1)n2C,>57,-15%
O=C(NCc1ccncc1)c1nnc(Cc2c(F)cccc2Cl)o1,>57,-13%
CCc1nc2ccccc2c(=O)n1CCCCn1c(CC)nc2ccccc2c1=O,>57,11%
CCOC(=O)N1CCN(S(=O)(=O)/C=C/c2ccccc2)CC1,·,-2%
Cc1nc2ccc(S(=O)(=O)NC(C(=O)NCc3cccs3)C(C)C)cc2s1 (stereo not given),>57,-13%
O=C(CN1C(=O)c2ccccc2C1=O)Nc1ccccc1C(=O)N1CCCC1,>57,-5%
Cc1c(C(=O)O)oc2ccc(S(=O)(=O)NCc3ccc4c(c3)OCO4)cc12,>57,8%
O=S(=O)(c1ccccc1)N1CCC2(CCN(c3cccc(-c4ccccc4)c3)CC2)CC1,>57,?
CC(=O)Nc1ccc(N=Cc2nc(-c3ccc(C)cc3)oc2O)cc1,>57,5%
Cn1c(=O)c2cc(S(=O)(=O)N3CCC(c4ccccc4)CC3)ccc2n(C)c1=O,>57,7%
O=C(O)[C@@H]1CCCN1Cc1ccc2c(c1)OCO2,>57,-1%[8 µM]
O=C1Nc2cc(Cl)cnc2N2CCCC12 (stereo not given),>57,-13%
COc1ccc(N(CC(=O)NC2CCCCC2)S(=O)(=O)c2cccnc2)cc1,>57,-8%
CCNC(=O)N1CCN(CCCC(c2ccc(F)cc2)c2ccc(F)cc2)CC1,>57,11%
CC(=O)Nc1ccc(C2NC(C(=O)O)CCC2C)cc1 (stereo not given),·,0%[8 µM]
COc1ccc(Cl)cc1NC(=O)CSc1ncnc2c1oc1ccccc12,>57,?
CC(=O)Nc1ccc(S(=O)(=O)N(C)S(=O)(=O)c2ccc(F)cc2)cc1,>57,7%
CCOc1ccc(S(=O)(=O)NCCCN2CCOCC2)c2ccccc12,>57,-9%
CCOc1ccccc1Nc1nnc(SCC(=O)Nc2cc(C)on2)s1,>57,-3%
